Anaer choline gr – blocks anaerobic gram-negative growth on choline; Gram-negative bacterium anaerobic choline minimal medium, absorbance growth; stronger effect = lower value; many inactives read as strong as hits in the columns shown; calls only; hit rate 0.2% among 55,000; AID 1963822;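 active = growth z-score on choline under -2 at 7 or 20 h with little or no fall on glycerol, limits in tiers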;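 note: stock transfer was 300 nL into about 50 µL; the organism is E. coli; final concentration not given here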
Anaer choline gr early – second read-out of Anaer choline gr, no call of its own (marks repeat the call); z-score; measured here: choline growth z-score, timepoint 1;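 score of optical density at 7 h as mean of two plates; lower means less growth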
Active calls of the source: *; i = inactive; & = joins results of further samples. These rows are one share of the data (hit frequency here may not be typical).

Anaer choline gr	Anaer choline gr early	SMILES
i	0.76	COc1ccc2c(c1)[nH]c1c(=O)n(Cc3ccccc3Cl)cnc12
i	-0.47	CC(C)CNC(=O)N1Cc2c(sc3c2CCN(C)C3)-n2cccc2C1c1ccccc1 (stereo unspecified)
i	0.22	Cc1ccccc1C(=O)N1CCC(c2nc(-c3ccc(S(=O)(=O)N4CCCC4)cc3)no2)CC1
i	0.78&-0.25	O=[N+]([O-])c1cccc2cn[nH]c12
i	-0.27	COc1cc(OC)c(NC(=O)C2CCN(C(=O)c3cccn3-c3cccnc3)CC2)cc1Cl
i	1.9	COc1ccc(Cn2cnc3c4ccccc4n(CC(=O)Nc4ccc(F)c(F)c4)c3c2=O)cc1
i	-0.42	CC(C)(C)c1csc(-c2csc(S(=O)(=O)Nc3ccc(F)c(F)c3)c2)n1
i	0.11	CC(C)N(Cc1ccccc1)c1ncnc2c1nnn2C
i	0.89	COc1ccc2cc(CNc3ccc(C)cc3)c(=O)n(CC(=O)NCCc3ccccc3)c2c1
i	0.71	Cc1cc(SCC(=O)Nc2nc(C)c(C(=O)OCC(C)C)s2)ncn1
i	-0.66	O=C(NCc1cccc(Cl)c1)c1cccn1-c1cccnc1
i	0.43	O=C1CC(c2ccc3c(c2)OCO3)c2cnn(-c3nc4ccccc4s3)c2N1 (stereo unspecified)
i	0.03	CCOC(=O)c1c(NC(=O)Cc2coc3ccc(OC)cc23)sc(C)c1C
i	-0.22	Cc1ccc(SCc2cc(=O)[nH]c(N3CCN(c4ccccc4)CC3)n2)cc1
i	0.3	Cc1cc(NC(=O)c2ccc3c(c2)OCO3)cc(-c2nc3ncccc3o2)c1O
i	0.17	COc1ccc(N2CCn3c(SCc4ccccc4F)nnc32)cc1
i	-1.7	CC(C)CCNC(=O)CCc1nc2sc3c(c2c(=O)[nH]1)CCCCC3
i	-0.55	COc1ccc(NC(=O)C2CCN(C(=O)c3ccc(-c4noc(C)n4)cc3)CC2)c(OC)c1
i	-0.62	COc1ccc(S(=O)(=O)N2CCc3cc4ccc(C)cc4nc32)c(OC)c1
i	0.24	CN1CCn2cc(S(=O)(=O)N3CCN(c4ccccc4)CC3)cc2C1=O
i	-0.45	O=C(CCCN1C(=O)c2cccnc2Oc2ccccc21)NCc1ccc2c(c1)OCO2
i	0.25	CCn1cnc(S(=O)(=O)N2CCCC(C(=O)NC(C)C)C2)c1 (stereo unspecified)
i	-1.2	CCOC(=O)c1nc(Nc2ccccc2Cl)c2c(C)noc2n1
i	-0.4	Cc1c(C(=O)O)nnn1-c1ccccc1
i	-1	CC1(C(=O)NCc2ccc(F)cc2)CCCN(C(=O)Nc2ccc(Br)cc2F)C1 (stereo unspecified)

New compounds follow:
Anaer choline gr	Anaer choline gr early	SMILES
i	0	CCS(=O)(=O)c1nc2ccc(NS(=O)(=O)c3ccc4c(c3)OCCO4)cc2s1
i	-0.79	O=C(NCCOc1ccc(-c2ccccc2)nn1)C1c2ccccc2Oc2ccccc21
i	-1.7	CC1Cc2ccccc2N1C(=O)CCC(=O)N1CCCN(c2ccc(=O)n(-c3ccccc3)n2)CC1 (stereo unspecified)
i	-0.08	CC(=O)N1CCC(C(=O)NCc2ccccc2)(N(C(=O)c2ccc(C)cc2)c2cccc(F)c2)CC1
i	-1.2	CCOCCCNC(=O)c1cccc(Oc2cc(-c3ccc(OC)cc3)ncn2)c1
i	-1.5	Cc1cc(C2CCCCC2)n(O)c(=O)c1
i	-0.66	O=C(c1c(-c2ccc(Cl)cc2)nc2n1CCS2(=O)=O)N1CCCCC1
i	-1.5	CCOC(=O)c1c(C)[nH]c(CN(Cc2ccc(C)cc2)C(=O)NC)c1C
i	-0.99	CCN(CC)C(=O)CN1C(=O)C2CCCCN2c2ccc(S(=O)(=O)N(C)C)cc21 (stereo unspecified)
i	-0.44	O=C(O)c1cc(N2CCN(c3ccc(Cl)cc3)CC2)nc2ccc(NC(=O)C3CC3)cc12
i	-1.5	CNC(=O)c1c(NC(=O)c2ccc(S(=O)(=O)N3CCc4ccccc43)cc2)sc2c1CCC2
i	-0.93	Cc1ccc2c(c1)NC(=O)c1cc(S(=O)(=O)N3CCc4ccccc4C3)ccc1O2
i	-0.04	CC1CCN(C(=O)c2cc3c(s2)CCC(C(=O)N2CCCC2)C3)CC1 (stereo unspecified)
i	-0.09	Cc1csc(NC(=O)c2nc3ccccc3nc2Cl)n1
i	1	CCC(C)Nc1oc(-c2ccc(S(=O)(=O)N3CCCC3)cc2)nc1C#N (stereo unspecified)
i	0.16	CNC(=O)Cc1ccc(-n2c(=O)c3ccccc3n(CC(=O)NCCc3ccc(Cl)cc3)c2=O)cc1
i	0.52	NC(=O)NS(=O)(=O)c1ccc(N)cc1
i	-0.58	CC(C)NC(=O)c1cc2c(=O)oc3ccccc3c2n1C
i	0.73	Cc1cc(C)c2c(-n3cccc3)c(C(=O)N(C)Cc3ccccc3)sc2n1
i	0.89	Cc1ccc(S(=O)(=O)N2CCC(c3noc(-c4ccc(F)cc4)n3)CC2)cc1
i	1	O=C(Nc1cc(F)ccc1F)Nc1cc(NC(=O)c2ccc(F)cc2)ccc1N1CCCC1
i	-0.76	CN1CCCc2cc(C(=O)NC3CCCCCC3)sc21
i	0.17	CCc1nnc2c(NCC3CCCO3)nc3ccccc3n12 (stereo unspecified)
i	-0.33	COc1ccc(-c2nc(Cn3c(=O)c4cccnc4n(-c4ccccc4)c3=O)c(C)o2)cc1
i	-0.63	O=C(O)CCS(=O)(=O)c1ncn[nH]1

15 compounds out of the list, sorted by molar mass, low to high.
Anaer choline gr	Anaer choline gr early	SMILES
i	0.78&-0.25	O=[N+]([O-])c1cccc2cn[nH]c12
i	0.17	CCc1nnc2c(NCC3CCCO3)nc3ccccc3n12 (stereo unspecified)
i	0.25	CCn1cnc(S(=O)(=O)N2CCCC(C(=O)NC(C)C)C2)c1 (stereo unspecified)
i	-1.2	CCOC(=O)c1nc(Nc2ccccc2Cl)c2c(C)noc2n1
i	-0.04	CC1CCN(C(=O)c2cc3c(s2)CCC(C(=O)N2CCCC2)C3)CC1 (stereo unspecified)
i	-1.7	CC(C)CCNC(=O)CCc1nc2sc3c(c2c(=O)[nH]1)CCCCC3
i	0.3	Cc1cc(NC(=O)c2ccc3c(c2)OCO3)cc(-c2nc3ncccc3o2)c1O
i	-0.42	CC(C)(C)c1csc(-c2csc(S(=O)(=O)Nc3ccc(F)c(F)c3)c2)n1
i	-0.47	CC(C)CNC(=O)N1Cc2c(sc3c2CCN(C)C3)-n2cccc2C1c1ccccc1 (stereo unspecified)
i	0	CCS(=O)(=O)c1nc2ccc(NS(=O)(=O)c3ccc4c(c3)OCCO4)cc2s1
i	-0.55	COc1ccc(NC(=O)C2CCN(C(=O)c3ccc(-c4noc(C)n4)cc3)CC2)c(OC)c1
i	0.89	COc1ccc2cc(CNc3ccc(C)cc3)c(=O)n(CC(=O)NCCc3ccccc3)c2c1
i	1.9	COc1ccc(Cn2cnc3c4ccccc4n(CC(=O)Nc4ccc(F)c(F)c4)c3c2=O)cc1
i	0.22	Cc1ccccc1C(=O)N1CCC(c2nc(-c3ccc(S(=O)(=O)N4CCCC4)cc3)no2)CC1
i	-0.08	CC(=O)N1CCC(C(=O)NCc2ccccc2)(N(C(=O)c2ccc(C)cc2)c2cccc(F)c2)CC1

The results go on.
Anaer choline gr	Anaer choline gr early	SMILES
i	0.14	Cc1nc2cc(-c3noc(-c4cncc(Br)c4)n3)ccc2o1
i	0.67	O=c1c2cccnc2n(-c2ccccc2)c(=O)n1Cc1ccccc1F
i	1.2	O=C(Cc1ccc2c(c1)OCO2)N1CCC(c2noc(-c3ccc(S(=O)(=O)N4CCCC4)cc3)n2)CC1
i	-0.05	CCCc1cc(C(=O)N2CCCC2c2c(C)noc2C)no1 (stereo unspecified)
i	1.4	CC(C)COc1ccc(C(=O)Nc2ccc3c(c2)NC(=O)CO3)cc1
i	-0.95	Cc1oc2ncn(CCC(=O)NCCC(C)C)c(=O)c2c1C
i	-0.73	O=C(CN1CCCN(Cc2cccc(F)c2)S1(=O)=O)NCc1ccccc1Cl
i	-0.14	Cc1cccc(-c2noc(CN3CCN(Cc4ccc5c(c4)OCO5)CC3)n2)c1
i	-0.17	O=C(CC1CCN(C(=O)c2ccccc2)CC1)NCc1ccccc1
i	-0.28	CC1(C)C(=O)NCCN1C(=O)NC1CCCCC1
i	-0.36	CCN1C(=O)c2ccccc2Sc2cc(NC(=O)C3CC(=O)N(c4ccc(C)c(C)c4)C3)ccc21 (stereo unspecified)
i	-0.79	COc1ccccc1NC(=O)N1CCN(C)c2ccccc21
i	-0.05	O=C(Nc1ccc2c(c1)OCO2)c1ccc(-c2cc(N3CCCC3)ncn2)cc1
i	0.22	CCCCN(C)C(=O)c1ccc(Cn2c(=O)c3cccn3c3cccnc32)cc1
i	-0.03	CCn1ccnc(NC2CC2)c1=O
i	-0.34	O=C(Cn1nc2c3sc(N4CCCCC4)nc3ncn2c1=O)Nc1ccc(Br)cc1
i	0.62	O=C1C(=O)N(C2CCN(S(=O)(=O)c3cccc(Cl)c3)CC2)CCN1Cc1cccc(F)c1
i	-0.45	Cc1cc(N2CCCC2)nc(N2CCN(S(=O)(=O)c3ccc4c(c3)Cc3ccccc3-4)CC2)n1
i	0.16	COc1ccccc1-c1noc2ncnc(N3CCCC3)c12
i	-0.25&-1.1&0.23&0.58	O=C1NCN(c2ccccc2)C12CCN(CCCC(c1ccc(F)cc1)c1ccc(F)cc1)CC2
i	-0.16	CCN1CCN(C(=O)c2ccc(-c3nc4ccccc4n(CC(C)C)c3=O)cc2)CC1
i	-0.31	Cc1ccc2c(c1)N(C(=O)COc1cc(-c3ccccc3)nc3ccccc13)CCO2
i	-1.3	O=C(Cn1c(=O)c2ccccc2n2c(=S)sc(-c3ccccc3)c12)NCC1CCCO1 (stereo unspecified)
i	1.5	O=C(NCCc1nc2cccnc2n1-c1ccccc1)Nc1ccccc1Cl
i	-0.05	COCCNC(=O)N1CCN(S(=O)(=O)c2cc3c(cc2Cl)NC(=O)C(C)O3)CC1 (stereo unspecified)

(continued)
Anaer choline gr	Anaer choline gr early	SMILES
i	-0.31	COc1ccc2c(c1)C=C(C(=O)NC1CCN(Cc3ccccc3)CC1)CO2
i	1.1	COc1ccc(NC(=O)c2c(C)oc3ccc(OC)cc23)cc1
i	-0.07	Cc1noc2c1C(c1ccccc1F)C1=C(CC(c3ccccc3)CC1=O)N2 (stereo unspecified)
i	0.68	O=c1cc(CNc2ccccc2F)nc2nc(NCc3ccccc3)[nH]n12
i	-0.07	Cc1ccc(S(=O)(=O)N(C)c2ccsc2C(=O)n2nc(C)cc2C)cc1
i	0.14	Cc1ccc(CN2CCC(CNC(=O)c3ccc4c(c3)nc3n4CCOC3)CC2)cc1
i	0.62	CCCCc1nnc2sc(COc3cccc(OC)c3)nn12
i	0.14	O=c1ccc(-c2ccc(F)cc2)nn1CCc1nc(-c2ccc(F)c(Br)c2)no1
i	0.23	Cc1cc(N2CCN(C)CC2)n2nc(-c3ccccc3)c(C)c2n1
i	-0.65	O=C(Nc1ccc(F)cc1)c1nnc(C2CCCN(C(=O)Nc3ccc(F)cc3)C2)s1 (stereo unspecified)
i	-0.38	Cc1ccc(NC(=O)CS(=O)(=O)c2ccc3c(c2)S(=O)(=O)N=CN3)cc1
i	-0.43	CCc1nnc(-c2cc(S(=O)(=O)N3CCC4(CC3)OCCO4)c[nH]2)o1
i	0.69	CC1CCN(c2ncnc3c2cnn3Cc2ccc(Cl)cc2)CC1
i	-0.5	CCOC(=O)c1c(NC(C)=O)c2c3c(sc2n1CC(=O)Nc1cccc(OC)c1)CCCC3
i	-0.64	O=C(CCn1cnc2onc(-c3cccc(F)c3)c2c1=O)NCc1ccccc1
i	-2.1	COC(=O)c1ccccc1NC(=O)NCc1nnc(C(=O)Nc2ccc(OC)cc2)s1
i	1.5	Cc1ccc2c(c1)N(CCCC(=O)Nc1cccc3nsnc13)C(=O)CO2
i	-0.14	COCCNC(=O)c1nc(-c2ccc(S(=O)(=O)N(C)C)cc2)no1
i	-1.8	COc1ccc(C(CNC(=O)COc2ccccc2OC)N2CCCCC2)cc1 (stereo unspecified)
i	0.03	C=CCNC(=O)CN1C(=O)COc2ccc(C(=O)N(CC)CC)cc21
i	-0.44	COc1ccc(-c2nn3c(NCCN(C)C)cc(C)nc3c2C)cc1OC
i	0.36	CNC(=O)N1CCCC1c1cc(C(C)C)no1 (stereo unspecified)
i	0.01	Cc1onc(-c2ccccc2Cl)c1C(=O)Nc1ccccc1C(=O)O
i	0.32	CCC(C(=O)Nc1cc(Cl)ccc1OC)n1nnc(C(=O)O)c1C(=O)O (stereo unspecified)
i	0.02	O=C1c2cccnc2C(=O)N1CCc1ccc(S(=O)(=O)N2CCN(Cc3ccccc3)CC2)cc1

Continued:
Anaer choline gr	Anaer choline gr early	SMILES
i	0.29	COc1ccc(S(=O)(=O)NCc2ccc(C(=O)NCCc3ccc(Cl)cc3)cc2)cc1
i	-0.82	CCC(=O)Nc1ccc(C)cc1-c1nnc(SC(CC)C(=O)Nc2c(C)cc(C)cc2C)[nH]c1=O (stereo unspecified)
i	0.15	CCC(C)NC(=O)C1CCCN(c2ccnc(-c3ccc(F)cc3)n2)C1 (stereo unspecified)
i	-0.79	CC(C)Cn1c(=O)c(-c2ccc(C(=O)N3CCOCC3)cc2)nc2ccccc21
i	-0.69	CCOc1ccccc1-c1cc(NC(=O)Cn2ncc3c(=O)oc4ccc(C)cc4c32)on1
i	-0.69	CCC(=O)Nc1cccc(-c2noc(C3CCCN(C(=O)c4cccc(Cl)c4)C3)n2)c1 (stereo unspecified)
i	-2.1	CNC(=O)N1CCc2cc(S(=O)(=O)NC3CC3)ccc21
i	1.1	COc1ccc2nc(NC(=O)c3ccc(CN4CCN(Cc5ccccc5)C4=O)cc3)sc2c1
i	1.3	O=c1n(Cc2cc(F)cc(F)c2)nc2c(S(=O)(=O)N3CCCCC3)cccn12
i	-0.3	Brc1ccc(OCc2nnc3sc(-c4ccncc4)nn23)cc1
i	-0.52	Cc1ccccc1OCC(=O)Nc1cc2c(cc1N1CCCCC1)n(C)c(=O)c(=O)n2C
i	1.3	COc1ccc(-c2noc(-c3cccc(OCC(=O)NC4CCCC4)c3)n2)cc1
i	-0.4	O=c1oc2cc(S(=O)(=O)N3CCCC3)ccc2n1Cc1noc(C2CC2)n1
i	-1.9	CCc1onc(C)c1C1CCCN1Cc1ccc(F)cc1 (stereo unspecified)

High-throughput results (PubChem BioAssay)
